Bioassay records deposited in PubChem by several laboratories.
Beta2AR agonist = activates human beta-2 adrenergic receptor causing internalization. P07550. Am2.2-beta2AR cells, FAP receptor internalization, flow cytometry; reference of the scale not given here. AID 504454. 340,000 tested, 0.43% active. response, % (concentration not given with the values);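 active = response above a set limit, near 3 SD of response in nonfluorescent compounds, cut at about 42% in these data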;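 also: stock transfer was 100 nL into about 11 µL; a reference agonist was the positive control; negative values mostly stem from fluorescent compounds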
UCH37 DUB inh = human UCH37 deubiquitinating enzyme inhibition. purified proteasome/UCH37, Ub-AMC cleavage fluorescence. inhibition, % (test concentration not listed). 330,000 tested, 0.33% active. AID 588478;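 active = mean of two replicates above 20%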;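 also: 0% = compound-free wells with enzyme and 100% = wells lacking proteasome; stock transfer was 100 nL into about 20 µL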
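Material: human UCH37 enzyme supplied as purified proteasome complex / Amount: 0.15 nM proteasome as dispensed / Buffer or medium: pH 7.4 Tris-HCl (50 mM) with ovalbumin, ATP-MgCl2, DTT / Times: preincubation 30 min, reaction 25 min, room temperature / Technique: AMC fluorescence from Ub-AMC cleavage, excitation 355 nm, emission 460 nm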
Beta cell apopt = blocks beta cell apoptosis | INS-1E cytokine-induced death, ATP luminescence, 48 h; percent of positive-control rescue, neutral wells zero | protection from apoptosis, % (concentration not given with the values) | AID 435005 | 300,000 tested, 0.8% active;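 active = all replicates at 75% or more, or half of them and the mean; inconclusive = half reach 75% but not the mean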;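 also: 0% = cytokine-treated negative control wells and 100% = positive control rescue; higher means more ATP so stronger rescue from cytokine killing; wells of about 40 µL received 100 nL stock; the first replicate is given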
A1 inh = inhibitors of the anti-apoptotic protein A1, read as caspase activation; MEF A1-2A-BIM cells, Caspase-Glo 3/7 luminescence, 3 h; percent of clofoctol response, vehicle zero; caspase activation, % (concentration not given with the values); 330,000 tested, 0.066% active; AID 2462;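 active = over half of replicate activation scores above 10%, or exactly half above 10 with the replicate mean above 10; inconclusive = replicate mean below 10 yet half the replicates above 10; inactive = over half of replicates below 10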;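 also: wells of about 30 µL received 50 nL stock; many hits fall short of the cut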
RanGTP-Imp inh = inhibitors of RanGTP-importin-beta interaction, primary screen, biochemical, FRET, CFP-Ran, YFP-importin-beta, homogeneous. AID 2216. 300,000 tested, 1.1% active. cell-free CFP-Ran/YFP-importin-beta FRET ratio. inhibition, % (concentration not given with the values);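 active = most replicates above 15%; inconclusive = exactly half above 15%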;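 also: 0% = DMSO wells and 100% = Ran loaded with GDP instead of GTP; wells of about 40 µL received 100 nL stock; the first replicate is given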
LANA-H2B inh = blocks KSHV LANA binding to histone H2A/H2B; Q9QR71; cell-free LANA-H2A/H2B peptide, fluorescence polarization; inhibition, % (no concentration beside the values); 320,000 tested, 0.6% active; AID 2629; in the data active = inhibition mostly above about 10%, no sharp cut-off; inactive = mostly below about 6.7%;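 also: stock transfer was 7.5 nL into about 10 µL; 0% = median of vehicle wells and 100% = median of positive control wells; one replicate is shown; the record names a cut of 25% in any replicate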
Target sequence (Q9QR71 whole entry, looked up): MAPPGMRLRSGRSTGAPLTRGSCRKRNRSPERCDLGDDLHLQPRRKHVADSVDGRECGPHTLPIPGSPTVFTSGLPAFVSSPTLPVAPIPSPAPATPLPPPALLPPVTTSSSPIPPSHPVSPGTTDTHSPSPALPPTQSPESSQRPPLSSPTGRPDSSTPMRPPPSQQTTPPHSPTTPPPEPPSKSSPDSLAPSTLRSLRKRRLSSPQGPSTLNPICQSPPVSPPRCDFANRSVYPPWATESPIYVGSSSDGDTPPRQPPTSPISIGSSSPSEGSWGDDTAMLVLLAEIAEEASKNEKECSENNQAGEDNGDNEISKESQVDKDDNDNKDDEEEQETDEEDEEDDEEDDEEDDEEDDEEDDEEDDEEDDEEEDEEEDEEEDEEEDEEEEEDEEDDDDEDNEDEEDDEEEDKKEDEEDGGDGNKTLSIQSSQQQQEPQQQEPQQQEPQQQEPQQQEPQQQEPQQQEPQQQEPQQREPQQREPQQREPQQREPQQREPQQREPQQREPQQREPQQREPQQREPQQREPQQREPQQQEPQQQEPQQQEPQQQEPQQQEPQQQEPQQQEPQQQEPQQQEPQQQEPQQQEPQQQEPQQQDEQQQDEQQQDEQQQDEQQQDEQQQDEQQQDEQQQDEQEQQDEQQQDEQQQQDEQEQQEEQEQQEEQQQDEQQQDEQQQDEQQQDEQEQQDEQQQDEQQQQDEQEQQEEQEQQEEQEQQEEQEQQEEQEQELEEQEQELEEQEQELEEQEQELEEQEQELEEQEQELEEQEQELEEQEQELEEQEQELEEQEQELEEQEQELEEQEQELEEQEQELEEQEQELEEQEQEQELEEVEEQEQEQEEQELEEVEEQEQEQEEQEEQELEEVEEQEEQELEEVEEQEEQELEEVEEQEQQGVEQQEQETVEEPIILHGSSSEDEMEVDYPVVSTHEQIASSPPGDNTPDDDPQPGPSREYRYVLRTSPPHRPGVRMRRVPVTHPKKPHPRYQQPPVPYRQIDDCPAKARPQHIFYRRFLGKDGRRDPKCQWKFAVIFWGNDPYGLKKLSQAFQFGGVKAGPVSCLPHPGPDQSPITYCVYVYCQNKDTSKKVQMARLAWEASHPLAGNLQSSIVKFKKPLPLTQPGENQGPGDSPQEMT
Calb FLC = affects C. albicans growth with fluconazole; C. albicans CaCi-2 (fluconazole-resistant clinical isolate) + fluconazole, Alamar Blue growth, 48 h; growth inhibition, % (no concentration beside the values); 300,000 tested, 0.57% active; AID 1979;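 active = most replicates above 75%; inconclusive = exactly half above 75%; inactive = most below 75%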;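 also: all wells also contain fluconazole at 8 µg/ml as a sub-toxic cotreatment; 0% = median of DMSO wells and 100% = median of geldanamycin control wells; wells of about 8 µL received 7.5 nL stock; the first replicate is given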
T cruzi repl = blocks replication of Trypanosoma cruzi | 300,000 tested, 1.4% active | AID 1885 | inhibition, % (test concentration not listed) | T. cruzi beta-gal in NIH3T3, luminescence, 90 h;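 active = mean inhibition across valid replicates above about 55%, limit read from the data; inconclusive = mean below that limit but half or more replicates reach it; inactive = mean below it, under half of replicates reach it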;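 also: signal also drops with host cell toxicity which is not excluded here; 0% = plate median of DMSO wells and 100% = zero luminescence signal; higher percent means less beta-gal luminescence so fewer parasites; stock transfer was 50 nL into about 50 µL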
Numbers without * were called inactive; ? = inconclusive; . = no result given. No enrichment for hits. Share with any hit: about 4.3%.

Every second line gives: Beta2AR agonist, UCH37 DUB inh, Beta cell apopt, A1 inh, RanGTP-Imp inh, LANA-H2B inh, Calb FLC, T cruzi repl
O=C(CSc1ncc(C(F)(F)F)cc1Cl)N1CCN(S(=O)(=O)c2ccccc2)CC1
 : 2, -0.4, -4, 0.1, 7.3, 1.3, 28, 27
CC1c2cc3c(cc2CCN1CC(=O)Nc1ccccc1)OCCCO3 (stereo not given)
 : -3, ., 2, 0.0, ?, -6.8, 0, 3
CCCc1nnc(NC(=O)CCC(=O)N2CCN(c3nc(C)cc(C)n3)CC2)s1
 : 3, -2.3, -6, 1.0, 4.1, 6.3, -4, 9
Cc1onc(-c2c(F)cccc2Cl)c1C(=O)NC1CCCCCC1
 : -6, 1.5, -6, 1.1, 1.6, 2.4, 1, 3
O=C(COC(=O)/C=C/c1cccc(F)c1)Nc1ccc(Cl)cn1
 : 7, -2.1, -5, -0.4, -2.2, -2.2, -2, -14
CC(=O)c1ccc2noc(-c3ccc(C)cc3)c2c1
 : 4, -77, -6, -0.3, 6.1, 5.3, 20, 1
CCC(C)NC(=O)C1CCN(S(=O)(=O)c2ccc(OC)cc2)CC1 (stereo not given)
 : 1, 0.8, ., -0.6, 4.4, 2.4, -1, -8
Cc1cc(C(=O)N2CCCC(C(=O)c3ccc(Oc4ccccc4)cc3)C2)n[nH]1 (stereo not given)
 : -12, 3.9, ., ., 1.0, ., -12, 11
CC1CC(C)CN(C(=O)C2CCCN(S(=O)(=O)c3cccc4nonc34)C2)C1 (stereo not given)
 : -7, 1.3, 4, -0.2, 4.5, -2.6, 4, 3
Cc1cc(/C=N/n2cnnc2)c(C)n1-c1ccc(Cl)cc1
 : -7, ., -10, -0.4, -2.4, -3.0, -5, 39
O=C(COC(=O)c1cccs1)Nc1cc(S(=O)(=O)N2CCOCC2)ccc1Cl
 : -2, 2.5, 6, 1.1, -3.1, -1.3, -21, 1
Cc1ccc(S(=O)(=O)CCC(=O)Nc2nc(-c3ccncc3)cs2)cc1
 : 6, -0.4, -18, -1.4, 0.4, -1.0, ?, 15
COc1ccc(C(=O)Nc2ccc3c(c2)nc(CN2CCN(C(C)=O)CC2)n3C)cc1
 : 2, 6.1, -4, -0.5, 2.9, 3.6, -3, 0
CN(c1ccccc1C(=O)Nc1ccccc1C(=O)NCc1ccco1)S(C)(=O)=O
 : 9, 0.0, 4, 0.1, -3.8, -3.0, 14, -7
O=C(c1ccco1)N1CCN(Cc2ccccc2Br)CC1
 : 3, 0.4, 2, 0.2, 6.5, -0.8, -5, 11
N#CC(C#N)=C(Nc1ccccc1)c1ccccc1
 : 4, 4.3, -5, 0.9, 2.2, 4.6, -9, -10
COc1ccc(OC)c(N(CC(=O)Nc2cccnc2)S(C)(=O)=O)c1
 : 7, 2.1, 3, 0.5, -1.8, 2.7, -6, 0
O=C(N/N=C/c1ccsc1)c1cc(-c2ccncc2)nc2ccccc12
 : 21, ., 7, -0.2, -2.1, -4.8, -1, -1
COC(=O)CNC(=O)c1sc2ncn(CC(=O)Nc3ccc(C)c(Cl)c3)c(=O)c2c1C
 : 0, 5.4, -13, -0.4, 3.3, -1.7, -2, -44
CCCCC(=O)c1c(C)cc(C)[nH]c1=O
 : -2, 0.6, -7, 0.0, -2.0, -0.5, 1, -8
COc1ccc(-n2c(C)c(C(C)=O)c(C(C)=O)c2C)cc1
 : 4, 3.7, -13, -0.4, 1.9, -0.9, ?, -2
Cc1cc(-c2ccccc2)nc(-c2ccccc2)c1C
 : -3, 3.0, 2, -0.5, ?, 3.2, -9, -21
O=C(O)c1cc2nc3c(c(C(F)(F)F)n2n1)CCc1ccccc1-3
 : 1, 5.4, 0, 0.4, 2.0, -0.7, 24, -10
Cc1oc(-c2ccccc2)cc1C(=O)Nc1cccc(/C=C\C(=O)O)c1
 : -5, 2.2, 2, -0.4, -0.2, 0.0, 2, 0
Cc1ccc2c(c1)=C(c1ccccc1)N(O)CC(=O)N=2
 : -13, 2.7, -2, 0.1, 3.8, 0.6, -5, -4
COC(=O)c1ccc(Nc2c([N+](=O)[O-])c(=O)oc3ccccc23)cc1
 : 8, 3.1, 3, 0.4, 4.2, 16, -8, -27
Cc1ccc(OCc2nnc(SCC(=O)N3CCOCC3)n2C)cc1
 : -3, 3.2, -2, 0.6, 0.3, 0.4, -15, -3
COc1ccc(C(=O)COC(=O)CNC(=O)c2ccccc2)cc1F
 : 0, 4.6, -4, -0.3, ., -1.0, ., .
CCC(CO)Oc1cc(NCc2ccc(Cl)cc2Cl)c2ncn(C(C)C)c2c1 (stereo not given)
 : 6, 1.8, 7, 0.4, ., -6.7, ., .
CCOc1cc(C(=O)NC(=S)Nc2cccnc2)cc(OCC)c1OCC
 : 10, 2.5, 1, 0.4, 1.7, 1.4, 4, -3

Looked up one by one from the entries so far (2):
Every second line gives: Beta2AR agonist, UCH37 DUB inh, Beta cell apopt, A1 inh, RanGTP-Imp inh, LANA-H2B inh, Calb FLC, T cruzi repl
COC(=O)c1ccc(Nc2c([N+](=O)[O-])c(=O)oc3ccccc23)cc1
 : 8, 3.1, 3, 0.4, 4.2, 16, -8, -27
O=C(N/N=C/c1ccsc1)c1cc(-c2ccncc2)nc2ccccc12
 : 21, ., 7, -0.2, -2.1, -4.8, -1, -1

Continuation.
Every second line gives: Beta2AR agonist, UCH37 DUB inh, Beta cell apopt, A1 inh, RanGTP-Imp inh, LANA-H2B inh, Calb FLC, T cruzi repl
COc1ccc(C2/C=C\CN(S(=O)(=O)c3ccc(-c4ccccc4)cc3)CC(=O)N2Cc2ccc(F)cc2)cc1 (stereo not given)
 : -2, 3.2, ., ., 1.2, ., 8, 26
O=C(Nc1ccnn1C1CCN(Cc2cccc(OCCO)c2)CC1)C1CC1
 : 7, 2.3, ., 0.5, 0.2, -0.3, -18, -10
Cc1ccc(N(NC(=O)C(C)(C)O)C(=O)c2ccccc2)cc1C
 : 0, 3.4, 4, -0.3, 5.7, 0.5, 10, -9
O=C(CSc1nc2ccccc2o1)c1cc2ccccc2oc1=O
 : -1, -0.9, 2, -0.5, ., 3.5, ., .
O=S(=O)(c1ccc(NC(=S)Nc2ccc(OC(F)F)cc2)cc1)N1CCOCC1
 : 7, 4.0, 1, -0.4, -4.9, -1.2, -3, -12
Cc1nnc(SCc2cccc([N+](=O)[O-])c2)[nH]c1=O
 : 2, -2.9, 3, 1.1, 1.2, 3.1, -24, -7
Cc1ccc2c(cnn2C(=O)CCCC(=O)NCc2ccc(Cl)cc2)c1
 : 16, 0.9, 1, -1.1, 26*, 5.8, -1, -10
Cc1c(C(c2cccs2)c2c(C)n(C)n(-c3ccccc3)c2=O)c(=O)n(-c2ccccc2)n1C
 : -11, 2.4, -3, -0.5, -0.3, -0.8, -4, -6
CC(Oc1ccc(Cl)cc1Cl)C(=O)NC(=S)N1CCc2ccccc21 (stereo not given)
 : 0, 4.1, 0, 0.7, 0.4, -6.1, 15, -3
COc1ccc(CNc2nc3c(c(=O)[nH]c(=O)n3C)n2Cc2ccccc2C)cc1
 : 9, 2.8, 1, -0.2, 7.6, 6.1, 0, -1
CCc1nc(SCC(=O)NC2CCCC2)c2c(=O)n(C)c(=O)n(C)c2n1
 : -6, 1.1, 1, 1.6, -1.2, 2.1, -1, -9
Cc1ccc2c(COC(=O)C3=COCCO3)cc(=O)oc2c1
 : -2, -4.6, ., ., -1.4, ., -2, -4
Cc1cc2c(cc1S(=O)(=O)NCc1ccccc1)OCC(=O)N2
 : 0, 7.6, 0, -0.2, -0.6, -0.7, -14, -9
S=C(NC1CCCCC1)NC1CC2C=CC1C2 (stereo not given)
 : -5, 4.3, -4, 0.8, ?, 2.8, -5, -28
Cc1ccc(C(=O)N/C(=C\c2cccs2)C(=O)NCCCN2CCOCC2)cc1
 : 4, 3.7, -10, 0.6, -4.7, -7.5, -1, -7
CCCNC(=O)CSc1nccn1Cc1ccc(OC)cc1
 : 9, 3.8, ., 0.2, 4.9, -1.2, 16, -4
Cc1ccc(C)c(NC(=O)CN(C)C(=O)CC2OC(=O)c3ccccc32)c1 (stereo not given)
 : -3, 2.0, 0, 1.6, ., 4.6, ., .
CCOC(=O)c1sc(Nc2ccc(F)cc2)nc1C
 : 2, -8.3, 2, -0.3, -4.1, -2.6, -3, 2
COc1ccc(C(=O)Nc2nc(C)cs2)cc1S(=O)(=O)N1CCCC1
 : -6, 1.4, -3, 0.2, -5.8, -2.1, 1, 3
CC(C)Cn1c(SCC(=O)Nc2cc(Cl)c(Cl)cc2Cl)nc(O)cc1=O
 : 2, 4.7, 1, 1.8, -3.2, 1.5, -1, -7
CCc1ccc(NC(=O)C(C)OC(=O)CCC(=O)c2cccs2)cc1 (stereo not given)
 : -3, 5.1, -3, 1.3, 0.7, 1.6, -2, 4
COc1cnc(-c2ccccn2)nc1Oc1ccccc1
 : -4, 2.1, ., -0.2, -4.7, -5.4, 19, -1
CCCOc1ccc(/C(O)=C2/C(=O)C(=O)N(CCCn3ccnc3)C2c2ccc(C)o2)cc1 (stereo not given)
 : 0, 4.4, -7, 0.0, 0.6, -9.7, 13, -5
COc1ccc(NC(=O)C#Cc2ccccc2)cc1OC
 : 4, 7.5, -11, 0.2, 2.1, 2.1, -4, 14
CCN(CC)S(=O)(=O)c1ccc(OC)c(NC(=O)COc2ccc3c(C)cc(=O)oc3c2)c1
 : 2, -28, -1, 0.1, 3.2, 0.8, 6, 10
Clc1ccc(C2NCCc3sccc32)cc1 (stereo not given)
 : 8, 1.6, -1, 0.3, 3.1, 9.3, 0, 4
COc1ccc(-c2nnc(SCc3ccccn3)n2C)cc1
 : 3, 3.8, 2, 1.6, 0.2, -1.3, -5, -2
CC1(C)C2CCC1(C)C(OC(=O)C[n+]1ccccc1N)C2 (stereo not given)
 : 5, -18, 6, -0.1, 3.4, 0.0, -5, -6
Cc1ccc(-c2nn(CC(=O)NCc3ccco3)c(=O)c3ccccc23)cc1
 : 0, 6.0, 6, -1.2, 5.7, 4.6, 7, 0
